TRPV1 potentiator: human TRPV1 potentiation. potentiation, % at 8.33 µM. 0.02% of 320,000 active. TRPV1-expressing cells, Fluo-8 calcium influx, capsaicin EC20 potentiation; host cell line not named in the record; control for the full effect not named in the record. Q8NER1; active means potentiation above 80%; inconclusive means 30% to 80%; inactive means below 30%; also: 0% is about no effect
Target sequence (Q8NER1 whole entry, looked up): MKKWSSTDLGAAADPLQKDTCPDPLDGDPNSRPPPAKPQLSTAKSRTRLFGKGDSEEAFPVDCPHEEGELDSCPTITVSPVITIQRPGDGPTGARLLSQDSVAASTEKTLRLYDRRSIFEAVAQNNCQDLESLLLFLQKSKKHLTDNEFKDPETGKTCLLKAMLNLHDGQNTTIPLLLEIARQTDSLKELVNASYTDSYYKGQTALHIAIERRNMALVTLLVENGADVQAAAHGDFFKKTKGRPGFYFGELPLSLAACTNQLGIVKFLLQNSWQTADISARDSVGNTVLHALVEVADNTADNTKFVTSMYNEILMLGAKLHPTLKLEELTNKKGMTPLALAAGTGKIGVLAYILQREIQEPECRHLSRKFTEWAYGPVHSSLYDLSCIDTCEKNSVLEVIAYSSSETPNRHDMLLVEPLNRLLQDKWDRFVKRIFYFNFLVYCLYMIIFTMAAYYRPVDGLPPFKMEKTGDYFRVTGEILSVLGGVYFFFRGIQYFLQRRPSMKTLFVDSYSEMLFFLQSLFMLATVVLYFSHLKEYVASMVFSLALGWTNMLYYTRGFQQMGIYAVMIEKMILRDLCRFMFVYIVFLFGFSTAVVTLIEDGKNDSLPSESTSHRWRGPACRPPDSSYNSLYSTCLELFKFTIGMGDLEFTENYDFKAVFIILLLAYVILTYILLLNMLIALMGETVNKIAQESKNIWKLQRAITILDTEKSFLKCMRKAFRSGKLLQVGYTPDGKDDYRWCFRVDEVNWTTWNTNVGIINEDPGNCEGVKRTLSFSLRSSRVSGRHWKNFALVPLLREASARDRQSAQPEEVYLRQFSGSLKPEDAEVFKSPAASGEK
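Cells expressing TRPV1 were dye-loaded with Fluo-8 and read kinetically: 10 s baseline, 3 min after compound (agonist portion), then 2 min after EC20 capsaicin (allosteric enhancer portion). Calcium-bound dye fluorescence at 480/520 nm.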
CtBP-E1A blk: inhibitors of CtBP/E1A interaction. AlphaScreen GST-E1A/His-CtBP binding, 1536-well; hits give low values; control for the full effect not named in the record. activity change, % (no concentration beside the values). 0.49% of 340,000 active. AID 651724; in the data active means activity change below about -65%; inconclusive means about -30% to -65%; inactive means above about -30%; also: % is scaled to controls: 0 for no effect and ±100 for the full control effect; compound concentration not given in the record
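GST-E1A and His-tagged CtBP (125 nM each as 5X stock) were preincubated with pin-transferred compound for 2 h at 37 °C in the dark, then glutathione donor and nickel acceptor beads were added for 1 h before AlphaScreen reading.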
D2 ag: agonists of human D2 dopamine receptor (beta-arrestin); P14416; DiscoveRx PathHunter D2 beta-arrestin, luminescence, 90 min; 100% = 57 uM dopamine signal; activation, % (test concentration not listed); 0.084% of 360,000 active; AID 624465; in the data active = activation above about 40%; inconclusive = about 15% to 40%; inactive = below about 15%; also: compound concentration not given in the record; the text of the record calls up to 30% inactive
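Agonist mode: compounds alone added to overnight-plated D2 PathHunter cells for 90 min at 37 C, with 57 uM final dopamine (EC100) defining full response. Beta-arrestin recruitment detected by chemiluminescent reagent, read after 1 h at ambient temperature.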
PINK1 expr mod: changes PINK1 expression. Potency, µM (titrated, usually from 76.6 µM), for inactives: top-dose activation (PINK1 increase), actives largely listed as activators. 0.2% of 410,000 active. PINK1 immunofluorescence, high-content cytometry, 24 h; active = well fitted activation curve with a large enough effect; inconclusive = small, poorly fitted or top-dose-only effect; inactive = flat fitted curve, though single readings scatter; cell line not stated here;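 also: potency is read from the fitted curve at half-maximal effect; % of control where 0% means no effect; nearly all actives have a fitted effect of over 65% in size; a mitochondrial uncoupler was the plate control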
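A stable cell line was treated with compounds at 5 concentrations for 24 hours, with CCCP as control. PINK1 levels and mitochondrial localization were measured by immunofluorescence with mitochondrial, cell and nuclear markers after fixation, read by laser-scanning cytometry.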
Sfp inh: inhibitors of Bacillus subtilis Sfp phosphopantetheinyl transferase | Q9F4F7 | Biochemical Sfp PPTase activity, qHTS | Potency, µM, for the others: max response, negative = inhibition, usual class: inhibitors | 3.5% of 310,000 active | AID 1490; active = well fitted inhibition curve with a large enough effect; inconclusive = small, poorly fitted or top-dose-only effect, or another doubt; inactive = no such curve, though single readings can be large or run the other way;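 also: the enzyme is Sfp with the accession as filed and its product quenches rhodamine fluorescence; potency is read from the fitted curve at half-maximal effect; 0% = enzyme reaction without inhibitor and -100% = no enzyme wells; top concentration of the series not given in the record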
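Sfp 15 nM + cpd, 15 min RT; start w/ rhodamine-CoA 5 uM, BHQ-2-YbbR 12.5 uM (final); 50 mM Hepes pH 7.6, 10 mM MgCl2, 0.01% NP-40, 0.01% BSA; read 525/598 nm at 0 and 30 min.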
Six1-Eya2 blk: Six1/Eya2 interaction inhibition; AID 651725; activity change, % (concentration not given with the values); 0.56% of 360,000 active; AlphaScreen GST-Six1/His-Eya2 binding, biochemical; hits give low values; control for the full effect not named in the record; in the data active = activity change below about -65%; inconclusive = about -30% to -65%; inactive = above about -30%; also: % is scaled to controls: 0 for no effect and ±100 for the full control effect
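AlphaScreen with GST-Six1 and His-Eya2 (5X mix: 250 nM and 500 nM), glutathione donor and nickel acceptor beads; buffer 50 mM Tris pH 8.0, 300 mM NaCl, 1 mM TCEP; 1 h at 37 C in the dark.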
D2 potentiator: human D2 receptor positive allosteric modulation; DiscoveRx D2 beta-arrestin cells, luminescence, 90 min; 100% = 57 uM dopamine signal; potentiation, % (no concentration beside the values); 0.23% of 360,000 active; active = potentiation of 50% or more; inconclusive = 30% to 50%; inactive = 30% or less;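 also: compound concentration not given in the record; tested on top of an EC20 dose of dopamine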
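D2 cells co-treated with compound plus 50 nM dopamine (EC20) for 90 min at 37 deg C to detect potentiation. Beta-arrestin recruitment was read as enzyme-fragment luminescence after 1 h at ambient temperature. Full response was set by 57 uM dopamine.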
The depositor's hits bear a star; ? = inconclusive; . = not tested or not shown; [ ] = dose if it differs, or a comment.

SMILES	TRPV1 potentiator	CtBP-E1A blk	D2 ag	PINK1 expr mod	Sfp inh	Six1-Eya2 blk	D2 potentiator
COc1ccc(/C=N/NC(=O)c2nc(-c3ccccc3)cc(-c3ccccc3)n2)cc1	-1.9	-7.5	-1.2	0.3%	-6.1%	5.3	-2.3
COc1ccc(C(=O)N/C(=C\c2ccc3c(c2)OCO3)C(=O)N2CCOCC2)cc1	0.8	5.1	2.0	3.6%	22.4%	0.0	-3.2
CCOC(=O)c1c(C(=O)OCC)c(C)n(Cc2cc(OC)c(OC)c(OC)c2)c1C	2.2	-11.5	1.3	-1.0%	20.6%	-1.8	-0.1
Cc1ccc(C(=O)N2CCN(Cc3ccc4c(c3)OCO4)CC2)cc1C	-7.9	8.8	-3.6	0.0%	10.0%	-5.6	-2.1
Cc1ccc(S(=O)(=O)NC(=O)COc2ccccc2C)cc1	14.1	9.5	-2.6	-0.3%	15.5%	12.6	-19.0
Cc1ccc(N=C2C(=O)Nc3ccccc32)cc1C	-2.0	-3.5	-13.3	-1.5%	-2.1%	6.1	-24.9
Cc1cccc(NC(NC(=O)c2ccccn2)C(Cl)(Cl)Cl)c1 (stereo not drawn)	2.7	7.9	1.2	-1.9%	-7.6%	6.3	1.9
CCCNC(=O)COC(=O)c1ccc(Cl)c(S(=O)(=O)N2CCCC2)c1	-13.6	0.6	0.8	1.6%	24.5%	4.9	9.3
COc1ccc(NC(=O)c2ccc(S(=O)(=O)N(C)C)cc2)cc1OC	-7.6	-14.5	2.0	-1.2%	7.5%	6.1	-1.3
Cc1cc(C(=O)OCC(=O)c2ccc3c(c2)OCCO3)c(C)o1	8.5	-3.5	-0.1	-1.7%	1.2%	-1.9	-3.8
COc1ccc2c(CC(=O)OCC(=O)Nc3sc4c(c3C#N)CCC(C)C4)coc2c1 (stereo not drawn)	-10.3	-1.0	-1.3	1.5%	-13.8%	-0.8	-1.9
CC(OC(=O)/C=C/c1ccco1)C(=O)Nc1cccc([N+](=O)[O-])c1 (stereo not drawn)	-6.1	-7.4	-4.5	6.3%	?	-18.6	-14.5
Cc1ccc(SCC(=O)Nc2ccc3c(c2)C(=O)N(C)C3=O)cc1	7.8	.	1.0	1.8%	7.4%	-1.3	3.1
CCOC(=O)C1(Cc2ccccc2C)CCCN(C(=O)c2ccc(COC)o2)C1 (stereo not drawn)	-34.0	-2.8	3.0	-2.2%	-22.7%	1.6	-11.5
CCSc1nnc2ccc(-c3ccc(OC)c(OC)c3)nn12	21.0	?	-1.1	1.8%	5.9%	?	-6.3
Cc1ccc(S(=O)(=O)NCCC(=O)Nc2nnc(C3CC3)s2)cc1C	-13.7	1.4	0.0	-1.6%	-3.7%	-1.2	8.1
COc1ccccc1CN1C(=O)C2CC=CCC2C1=O (stereo not drawn)	4.5	5.8	-1.0	4.2%[38.3 µM]	11.4%	2.9	7.4
NC(=O)CC(NC(=O)Cc1cccc2ccccc12)c1ccc(N2CCc3ccccc3C2)c([N+](=O)[O-])c1 (stereo not drawn)	-1.4	-14.2	-4.2	2.7%	-25.8%	-14.3	-6.6
CC(C1CC1)N(Cc1ccccc1)C(=S)Nc1ccccc1 (stereo not drawn)	11.5	-4.9	-0.9	0.6%	20.4%	4.7	0.0
O=C(Nc1csnn1)c1csnn1	-2.3	.	2.5	2.5%	-6.9%	-2.7	-1.5
Cc1ccccc1NC(=S)NCCO	12.0	-7.5	0.3	-1.0%	?	10.9	-8.0
CCSc1nnc(NC(=O)CN2C(=O)N(C)C3(CCCCC3)C2=O)s1	5.8	-1.9	-2.3	5.1%	.	2.3	-13.5
COC(=O)[C@@]12CCCN1[C@H](c1ccc(-c3ccc(F)cc3)cc1)[C@H]1C(=O)N(C)C(=O)[C@H]12	3.6	2.4	-0.1	-0.9%	.	0.5	-7.6
NC(=O)CC(NC(=O)Cc1cccc2ccccc12)c1ccc(NCc2ccc(F)c(F)c2)c([N+](=O)[O-])c1 (stereo not drawn)	19.2	-5.5	-3.8	3.2%	-22.5%	0.4	-6.2
CC1=C(C(=O)N2CCOCC2)CC(CC(=O)NCC2CCCCC2)C(=O)N1Cc1ccc(F)cc1 (stereo not drawn)	.	2.6	-1.8	0.6%	.	2.8	-1.9
Cc1cc(C)c(NC(=O)CNC(=O)c2ccc(-n3cncn3)c([N+](=O)[O-])c2)c(C)c1	12.6	-7.3	0.9	7.7%	.	-4.7	-1.1
Cc1nn(CC(=O)NCCc2ccccc2)c(C)c1[N+](=O)[O-]	-0.7	-3.6	0.3	0.7%	5.1%	7.8	-17.1
CCC(CO)Oc1cc(NC(=O)c2ccc(N)cc2)c2ncn(C(C)C)c2c1 (stereo not drawn)	.	-5.9	6.8	1.9%	.	-5.4	-3.6
O=C(Nc1ccc(F)cc1)Nc1ccccc1NS(=O)(=O)c1cccs1	16.8	.	1.7	0.3%	20.7%	0.0	-7.6
COCCn1c(-c2ccc(OC(F)(F)C(F)C(F)(F)F)cc2)nc2c1c(=O)[nH]c(=O)n2CC(C)C (stereo not drawn)	-1.6	-0.3	-0.4	6.3%	?	-4.5	-6.9
CCOC(=O)Cc1csc(NC(=O)CCCN2C(=O)c3ccccc3C2=O)n1	3.8	4.0	-2.3	?	27.0%	0.1	-8.0
CC(OC(=O)c1cccc(S(=O)(=O)N2CCOCC2)c1)C(=O)NCC1CCCCC1 (stereo not drawn)	.	5.7	-0.5	2.4%	.	0.9	-5.6
CN1CCN(c2ccc(C(=O)NC3CCCCC3)cc2[N+](=O)[O-])CC1	-6.3	.	-3.2	1.5%	6.6%	2.7	-2.7
Cc1ccc(C)c(NC(=O)CSc2nnc(C)c(=O)n2N)c1	1.1	6.2	2.8	0.3%	11.3%	3.6	-12.6
CN(C)[C@H]1CCN([C@H]2CS(=O)(=O)N[C@@H]2COCc2ccccc2)C1	.	-4.5	-5.8	0.0%	.	3.7	-9.4
COc1cc(NC(C)=O)ccc1-c1cc2ccccc2oc1=O	13.7	-10.7	-1.6	8.4%	4.7%	-3.6	-6.2
O=C(Nc1cc([N+](=O)[O-])ccc1O)c1cccc(NC(=O)c2ccco2)c1	?	-12.3	1.0	0.7%	-2.4%	-7.5	-3.5
CC(=O)C1C(c2ccc(O)cc2)NC(=O)NC1(O)C(F)(F)F (stereo not drawn)	3.3	-1.2	-3.1	-1.0%	-0.3%	-5.4	0.3
O=C(C[C@H]1C/C=C\C[C@H](Cc2ccc(F)cc2)C(=O)O[C@@H](c2ccccc2)CNC1=O)NCCO	.	4.4	-1.3	-0.7%	.	0.2	-4.2
N#Cc1c2ncn(CC(=O)c3ccc(Br)cc3)c(=O)c2c2n1CCC2	7.4	-2.8	-1.2	25.4%	10.0%	-0.3	-2.6
CC(=O)c1cccc(NC(=O)Cn2cnc(S(=O)(=O)N3CCOCC3)c2)c1	-21.9	-9.9	-1.0	0.8%	6.7%	-5.8	-13.5
COc1ccc(CNC(=O)COC(=O)CNC(=O)c2sc3ccccc3c2Cl)cc1OC	-16.6	1.7	1.9	1.9%	.	-3.4	1.8
CC(=O)NC(Cc1ccc(C(C)C)cc1)C(=O)NC1CCN(C(=O)c2cccc(C)c2)CC1 (stereo not drawn)	6.4	0.0	-3.3	-0.8%	3.4%	7.2	-0.4
COc1cc(C(N)=O)ccc1OCc1ccccc1	-3.7	-1.0	-2.2	-0.3%	14.8%	1.9	-4.7
Cc1ncc(S(=O)(=O)c2ccccc2)c(-c2ccccc2Cl)n1	-4.4	-1.2	0.1	-0.4%	-1.5%	7.0	-3.2

Among those listed so far, these have an aryl thioether with sulfur outside any ring.
SMILES	TRPV1 potentiator	CtBP-E1A blk	D2 ag	PINK1 expr mod	Sfp inh	Six1-Eya2 blk	D2 potentiator
Cc1ccc(SCC(=O)Nc2ccc3c(c2)C(=O)N(C)C3=O)cc1	7.8	.	1.0	1.8%	7.4%	-1.3	3.1
CCSc1nnc2ccc(-c3ccc(OC)c(OC)c3)nn12	21.0	?	-1.1	1.8%	5.9%	?	-6.3
CCSc1nnc(NC(=O)CN2C(=O)N(C)C3(CCCCC3)C2=O)s1	5.8	-1.9	-2.3	5.1%	.	2.3	-13.5
Cc1ccc(C)c(NC(=O)CSc2nnc(C)c(=O)n2N)c1	1.1	6.2	2.8	0.3%	11.3%	3.6	-12.6

Further compounds
SMILES	TRPV1 potentiator	CtBP-E1A blk	D2 ag	PINK1 expr mod	Sfp inh	Six1-Eya2 blk	D2 potentiator
CCc1nc2ccc(C(=O)N3CCN(C(C)=O)CC3)cn2c1N(C)C(=O)c1cccc(OC)c1	.	6.5	-4.3	2.4%	.	8.3	-4.8
COc1ccc(C(=O)N2CCN(Cc3ccc(OC)c(OC)c3)CC2)cc1	?	5.4	2.0	1.5%	-12.3%	1.5	-9.3
CCOC(=O)c1cnc2c(OC)cccc2c1N1CCN(c2ccc(OC)cc2)CC1	15.2	-13.9	-5.3	-1.6%	?	-20.2	-2.3
Cc1nc2ccc(NC(=S)NCc3ccccc3)cc2nc1C	-7.6	-19.4	-2.0	-0.9%	3.7%	-2.3	-5.9
Cc1cc(NC(=O)CN(C)S(=O)(=O)c2cccc(Cl)c2)no1	-3.0	-11.6	0.7	4.0%	14.2%	-1.1	11.6
CC(C)Cc1c2c([nH]c(=S)c1C#N)CCCC2	0.2	-9.3	-0.8	0.1%	2µM*	1.0	-15.8
CCCn1c(SCC(=O)NC2CCCc3ccccc32)n[nH]c1=O (stereo not drawn)	7.0	6.7	-4.3	-1.6%	30.4%	3.2	-3.5
O=C(O)c1ccc2c(=O)[nH]c(CN3CCOCC3)nc2c1	3.3	-0.4	-7.1	3.7%	-20.8%	10.2	11.6
CCOc1ccc(CCNC(=O)COC(=O)CNS(=O)(=O)c2ccc(C)cc2)cc1OCC	-9.9	3.3	0.7	2.9%	.	2.5	13.3
CN(C)CCC1CCN(c2cc(C#N)c(C#N)cc2[N+](=O)[O-])CC1	-2.0	0.0	8.7	-0.5%	15.8%	-13.9	14.9
C[C@@H]1[C@H]2CCCC[C@H]2CN(C(=O)OC(C)(C)C)[C@@H]1c1cn(Cc2ccccc2)c2ccc(F)cc12	.	0.0	-1.1	1.5%	.	-1.4	.
N#CC(C#N)=C1NC2(CCCC2)Cc2ccccc21	2.2	-2.7	-5.9	-2.2%	21.6%	1.0	-2.8

Source: PubChem BioAssay (National Center for Advancing Translational Sciences (NCATS))
